Assay outcomes as filed in PubChem.
OX1R antag-1 = OX1R (HCRTR1) antagonists, primary screen, fluorescence, CHO/OX1R cells, Fluo-8 calcium, orexin A; Orexin/Hypocretin receptor type 1 (Homo sapiens), O43613; Fluo-8 calcium fluorescence; inhibition, % at 5 µM; 330,000 compounds, 0.43% hits; AID 434989, 2010;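 active = inhibition above its plate's threshold, mean inhibition of all tested compounds on the plate plus 3 SD, cut at about 37% in these data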;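 note: 0% = orexin A challenge wells and 100% = SB-334867-A antagonist wells; not every result past the cut was called active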
Target sequence (O43613 whole entry, looked up): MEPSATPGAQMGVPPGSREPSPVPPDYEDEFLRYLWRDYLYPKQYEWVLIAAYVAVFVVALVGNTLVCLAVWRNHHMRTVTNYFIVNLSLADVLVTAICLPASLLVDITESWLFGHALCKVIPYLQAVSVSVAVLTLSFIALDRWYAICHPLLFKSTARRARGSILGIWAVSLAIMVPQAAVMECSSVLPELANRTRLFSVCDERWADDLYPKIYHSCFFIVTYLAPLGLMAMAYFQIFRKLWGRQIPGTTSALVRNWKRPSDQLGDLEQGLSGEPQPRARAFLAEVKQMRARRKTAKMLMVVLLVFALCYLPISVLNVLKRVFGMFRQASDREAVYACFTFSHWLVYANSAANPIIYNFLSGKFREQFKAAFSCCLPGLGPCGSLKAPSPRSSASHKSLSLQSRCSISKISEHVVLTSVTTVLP
OX1R antag-2 = antagonists of human orexin 1 receptor (OX1R) | inhibition, % at 6.6 µM | AID 485270, 2010 | OX1R-expressing cells, FRET antagonist read-out | Orexin/Hypocretin receptor type 1 (Homo sapiens), O43613 | 330,000 compounds, 1.8% hits; in the data active = inhibition mostly above about 38%, no sharp cut-off; inactive = mostly below about 40%;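 note: 0% = agonist challenge alone and 100% = reference antagonist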
* marks the source's active call; other numbers are inactive results. Some of the compounds tested, and most or all hits are left out here.

SMILES	OX1R antag-1	OX1R antag-2
COc1ccc(Cc2nc3ccc(C(=O)N(C)CC4COCCO4)cc3o2)cc1 (stereo not given)	-19	16
Cc1cc(NC(=O)c2ccc(S(=O)(=O)N(C)C)cc2)no1	-17	16
Cc1cc(Cl)ccc1OCC(=O)Nc1cccc(S(=O)(=O)NC2=NCCCCC2)c1	-24	14
CC(=O)c1c(OC(=O)c2ccccc2Br)ccc2c(C)cc(=O)oc12	-28	26
OC(COCc1ccccc1)CN1CCCCC1 (stereo not given)	1	0
CCN(CC(=O)Nc1ccccc1C(F)(F)F)C(=O)CSCc1ccc(C)cc1	-17	17
O=C(CSc1nnnn1-c1ccc2c(c1)OCCO2)N1CCc2ccccc21	-6	-4
CCOC(=O)N1CCC(n2c(=S)[nH]c3cc(OC)c(OC)cc3c2=O)CC1	-35	6
COc1cccc(/C=C/C(=O)OC(C)C(=O)Nc2c(C)n(C)n(-c3ccccc3)c2=O)c1 (stereo not given)	-17	6
O=C(OCc1c(Cl)cccc1Cl)c1cccnc1	-39	13
COCCCn1c(=O)/c(=C\c2ccc(OC(F)F)c(OC)c2)s/c1=C(/C#N)C(N)=O	-15	10
CC(C)=CC(=O)Nc1ccc(S(=O)(=O)Nc2onc(C)c2C)cc1	3	3
CC(=O)n1cc([C@H]2C=C(C(=O)O)O[C@@H](OCCCCO)C2)c2ccccc21	-4	7
CCN(CC)S(=O)(=O)c1cc(C(=O)OCC(=O)c2ccc3c(c2)NC(=O)CO3)ccc1Cl	-11	5
CN(C)S(=O)(=O)Oc1ccccc1C(=O)Nc1ccccc1Cl	-9	18
Cc1ccc(C(=O)NCCNc2nc3cc(C)c(C)cc3cc2C)cc1	-23	1
O=C1CC(NNC(=O)c2ccc(Br)cc2)C(=O)N1 (stereo not given)	6	4
CCC1=NN(C(=O)CCc2ccc3c(c2)OCO3)C(O)(C(F)(F)F)C1 (stereo not given)	-11	9
COc1ccc(NC(=O)N(CCCN2CCOCC2)Cc2cccnc2)c(OC)c1	-15	3
C#CCSc1nc(C)cc(C(=O)OCC)c1C#N	-18	5
Cc1cc(N2CCN(c3ccc([N+](=O)[O-])c4cccnc34)CC2)c2ccccc2n1	-26	16
Cc1cc(/C(N)=N/OC(=O)c2cccc(Cl)c2)no1	-15	-1
CCCNS(=O)(=O)c1cccn1-c1ncc(C(F)(F)F)cc1Cl	-19	26
Cc1ccc(-n2ncc3c(NCc4ccco4)ncnc32)cc1C	-10	4
CN(C)CCCNc1oc(-c2ccc(Cl)cc2)nc1C#N	-10	3

The list goes on (seven carried over from the part before).
SMILES	OX1R antag-1	OX1R antag-2
COc1ccc(NC(=O)N(CCCN2CCOCC2)Cc2cccnc2)c(OC)c1	-15	3
C#CCSc1nc(C)cc(C(=O)OCC)c1C#N	-18	5
Cc1cc(N2CCN(c3ccc([N+](=O)[O-])c4cccnc34)CC2)c2ccccc2n1	-26	16
Cc1cc(/C(N)=N/OC(=O)c2cccc(Cl)c2)no1	-15	-1
CCCNS(=O)(=O)c1cccn1-c1ncc(C(F)(F)F)cc1Cl	-19	26
Cc1ccc(-n2ncc3c(NCc4ccco4)ncnc32)cc1C	-10	4
CN(C)CCCNc1oc(-c2ccc(Cl)cc2)nc1C#N	-10	3
O=C(O)CSc1ncnc2scc(-c3ccc(Br)cc3)c12	-4	11
Cc1ccccc1C(=O)NN(C)c1nc2ccccc2nc1C(F)(F)F	-7	6
CN(CCC#N)C(=O)COC(=O)c1ccc(CNS(=O)(=O)c2ccc(F)c(Cl)c2)cc1	-10	9
CC1CCC(NC(=O)Cn2c(=O)[nH]c3ccsc3c2=O)CC1 (stereo not given)	-13	14
CCN(CC)C(=O)CSc1nc2ccccc2c(=O)n1OC(C)C	-13	15
COc1ccc(/C=C/C(=O)Nc2nnc(C(C)C)s2)cc1OC	0	11
Cc1ccc(CS(=O)(=O)c2ncc(Cl)c(C(=O)Nc3nnc(C(C)C)s3)n2)cc1	12	20
O=C1CCCCN1CCC(=O)N1CCCC(N2CCN(c3ccccc3)CC2)C1 (stereo not given)	-13	3
O=C(NCCc1ccccc1)Oc1ccc(Cl)cc1	-5	5
COC(=O)[C@@H](NCc1cccc(CN[C@H](C(=O)OC)C(C)C)c1)C(C)C	-19	21
O=C(CC1CCCCC1)Nc1ccc(-c2ccc3nncn3n2)cc1	-12	23
COc1ccc(C(=O)N2CCc3c([nH]c4ccccc34)C2C(F)(F)F)cc1 (stereo not given)	-35	19
COCCN(C(=S)Nc1c(C)cccc1C)C(C)c1ccco1 (stereo not given)	-7	13
CCOC(=O)/C=C/C(=O)OCC(=O)NCc1ccccc1	-13	12
O=C(Nc1ccc(F)cc1F)N1CCN(C(=O)c2ccco2)CC1	-8	35
CN(CCC1CCOCC1)C(=O)C1CCC(=O)N(CCc2cccc(F)c2)C1 (stereo not given)	-24	20
Cc1nc2ccccc2c(=O)n1CCCO	0	11
CC12CCC(C(=O)Nc3ccccc3-n3cccc3)(CC1=O)C2(C)C (stereo not given)	-24	29
O=C(NC1CCc2ccccc21)c1cc(COc2ccc(F)cc2Cl)on1 (stereo not given)	-24	25
COc1ccc(C(=O)NC2CCCc3ccccc32)cc1 (stereo not given)	-6	7
Cc1cc(C2=NNC(=NC3CCCCC3)SC2)c(C)n1-c1c(C)n(C)n(-c2ccccc2)c1=O	-38	4
COc1ccc(OCCn2cc(/C=C(\C#N)C(=O)NCc3ccco3)c3ccccc32)cc1	-9	14
NNC(=O)C1COc2cc3ccccc3cc2O1 (stereo not given)	-9	-1
O=C(NCCO)NC(=S)c1ccccc1	4	10
Cc1sc(NC(=O)CSc2nnc(CCNC(=O)c3cccs3)n2C)nc1-c1ccccc1	-13	25

Next part:
SMILES	OX1R antag-1	OX1R antag-2
CCCCCCCCC(=O)NNC(=O)c1c(O)c2ccccc2n(CC)c1=O	-24	27
CC1CN(C(=O)C2CCCN2S(=O)(=O)c2ccc(Cl)cc2)CC(C)O1 (stereo not given)	-2	0
Cc1cc(=O)n(-c2ccc(Cl)cc2)c(=O)[nH]1	5	-2
COc1ccc(S(=O)(=O)N2CCC(C(=O)NCc3cccnc3)CC2)cc1Cl	-7	6
NC(=O)c1c(NC(=O)C(=O)N2CCOCC2)sc2c1CCC2	-2	16
Cc1cc(C)n(-c2cccc3cccnc23)n1	2	4
CCc1cccc(NC(=S)Nc2cccc3ccccc23)c1	-16	23
COc1ccccc1N(C)S(=O)(=O)c1ccc(Cl)c(C(=O)NCC2(N(C)C)CCCCC2)c1	-23	18
CC12CN3CCN(CC(C3)/C1=N\N=C1/C3CN4CCN(C3)CC1(C)C4)C2	-3	9
O=C(NC1CCSC1=O)c1cccc(Cl)c1 (stereo not given)	-5	1
CN(C)S(=O)(=O)Nc1ccccc1F	-10	1
C=CCN(C(=O)Cn1ncc2c1-c1cc(C)ccc1OC2)c1ccccc1	-40	18
CCOC(=O)Cc1csc(NC(=O)CSc2cc(Cl)ccc2Cl)n1	-21	15
Cc1cc(C(=O)COC(=O)CC2Sc3ccccc3NC2=O)c(C)n1-c1ccccc1 (stereo not given)	-12	18
CCCc1ccc(S(=O)(=O)Nc2ccc(C)c(NS(C)(=O)=O)c2)cc1	-30	23
CCC(C)(C)n1nnnc1C(c1ccc(C)cc1)N1CCC(C)CC1 (stereo not given)	-12	20
O=C1c2c(O)cc(O)cc2O[C@H](c2ccc(O)cc2)[C@H]1O	0	3
Fc1ccccc1N1CCN(C(c2ccccn2)c2nnnn2C2CCCCC2)CC1 (stereo not given)	-38	8
Cc1ccc(/C=N/NC(=O)c2cccnc2)o1	-22	10
CCN(CC)S(=O)(=O)c1cc(NC(=O)CNc2c(C)n(C)n(-c3ccccc3)c2=O)ccc1C	-8	16
Cn1cccc1C(=O)NC(=O)CSc1nc2ccccc2s1	2	12
Cc1ccc(CNC(=O)Nc2cccs2)cc1	-7	26
CC(=O)Oc1ccc(N2C(=O)[C@@H]3[C@H](C2=O)[C@H]2c4ccccc4C=NN2[C@@H]3C(C)=O)cc1	-8	14
CCn1ccnc1CN(C)C(=O)CC1C(=O)NCCN1Cc1c(F)cccc1Cl (stereo not given)	-11	8
FC(F)Oc1ccc(/C=N/N2CCCCC2)c(OC(F)F)c1	-1	11

Other results:
SMILES	OX1R antag-1	OX1R antag-2
CCc1ccc(NC(=O)C2(C)Cc3ccccc3C(=O)O2)cc1 (stereo not given)	-21	3
O=C(NCCc1ccccc1)c1cc(-c2ccncc2)nc2ccc(S(=O)(=O)N3CCOCC3)cc12	-23	10
CCOC(=O)N1CCN(C(=O)CSc2ccc(-c3cccnc3)nn2)CC1	6	21
COc1ccc(-c2oc3cccnc3c2/C=C/c2ccc(OC)c(OC)c2)cc1	-30	21
O=c1cc(-c2ccccc2F)oc2ccccc12	-22	8
CCC1(C)C2(C#N)C(N)=NC(OC)(OC)C12C#N (stereo not given)	-9	-4
Fc1ccc(NC(=S)N2CCCCC2)cc1	1	11
CC(C)CCNC(=O)CC1Nc2c3ccccc3nc(=S)n2C1=O (stereo not given)	-8	11
CC(OC(=O)CCc1c[nH]c2ccccc12)C(=O)c1ccccc1 (stereo not given)	-18	14
CSc1cccc(NC(=O)c2cnccn2)c1	-13	18
CCSCc1nnc(SCC(=O)Nc2cccc(C(C)=O)c2)n1C	-9	18
Cn1c(N)c(C(=O)COC(=O)CSc2ccc3ccccc3c2)c(=O)n(C)c1=O	-17	20
Cc1cc2c(C)cc(=O)[nH]c2cc1NC(=O)CCl	-10	12
Cc1ccc(N2CCN(/N=C/c3cccs3)CC2)cc1	-7	8
O=C(NCc1ccc2c(c1)OCO2)c1ccc(CS(=O)(=O)c2ccc(Br)cc2)o1	0	17
O=C(COC(=O)CCCOc1ccc(Cl)cc1Cl)NCc1ccc(F)cc1	-24	1
CC(O)c1ccc2c(c1)OCCOCCN(C)CCOCCO2 (stereo not given)	-9	6
Cc1ccc(SCc2nn(C)c(Cl)c2C=O)cc1	-13	3
CC1CCN(S(=O)(=O)c2ccc3c(c2)N(CC(=O)NCc2cccnc2)C(=O)CS3)CC1	-38	11
CC1CC(C)CN(C(=O)Cn2c(=O)c3cccn3c3cccnc32)C1 (stereo not given)	-2	8
CC(C)(C)c1ccc(/C=C/C(=O)Nc2nncs2)cc1	3	2
CNS(=O)(=O)c1cc(NC(=O)CCCNC(=O)c2ccc(Cl)cc2)ccc1C	-30	19
CC(NC(=O)c1cccs1)C(c1cccs1)N1CCOCC1 (stereo not given)	-9	5
Cc1cccc(NC(=O)CC(C)S(=O)(=O)c2ccc3c(c2)NC(=O)CO3)c1C (stereo not given)	-28	3
O=C1CSC(c2nn(-c3ccccc3)cc2-c2cc3ccccc3oc2=O)N1Cc1ccco1 (stereo not given)	7	13

Grouped by structure: those above with an NH in an aromatic ring
SMILES	OX1R antag-1	OX1R antag-2
CCOC(=O)N1CCC(n2c(=S)[nH]c3cc(OC)c(OC)cc3c2=O)CC1	-35	6
CC1CCC(NC(=O)Cn2c(=O)[nH]c3ccsc3c2=O)CC1 (stereo not given)	-13	14
COc1ccc(C(=O)N2CCc3c([nH]c4ccccc34)C2C(F)(F)F)cc1 (stereo not given)	-35	19
Cc1cc(=O)n(-c2ccc(Cl)cc2)c(=O)[nH]1	5	-2
CC(OC(=O)CCc1c[nH]c2ccccc12)C(=O)c1ccccc1 (stereo not given)	-18	14
Cc1cc2c(C)cc(=O)[nH]c2cc1NC(=O)CCl	-10	12

(cont.)
SMILES	OX1R antag-1	OX1R antag-2
COC(=O)C1C(=O)NCC1c1ccccc1 (stereo not given)	0	6
O=C(NC(=O)N1CCN(c2ccc(F)cc2)CC1)c1ccccc1	-3	10
O=C(Cn1nc(-c2cccc(Cl)c2)ccc1=O)NCC1COCCO1 (stereo not given)	4	22
Cc1cc(N2CCOCC2)ccc1/C=C1\NC(=O)N(Cc2ccccc2)C1=O	-11	13
CC(=O)N1N=C(c2ccccc2)CC1c1cccc([N+](=O)[O-])c1 (stereo not given)	-8	16
CCCN(CC(=O)Nc1ccccc1C)C(=O)C1CCN(S(=O)(=O)c2ccccc2C(F)(F)F)CC1	-10	8
CCN(CC)S(=O)(=O)c1ccc(N2CCCC2)c(NC(=O)C2CSC3(C)CCC(=O)N23)c1 (stereo not given)	-31	14
COc1cnc(-c2ccccn2)nc1Oc1cccc(C(F)(F)F)c1	-41	-6
O=[N+]([O-])c1cccc(/C=N/Nc2nc(NCc3ccccc3)nc(N3CCOCC3)n2)c1	3	21
Cc1cccc(C)c1OCc1nnc(SCC(=O)NCc2ccccc2)o1	-18	9
O=c1[nH]c(=O)n(Cc2ccccc2)c2c1C(C(F)(F)F)(C(F)(F)F)N=C(c1ccco1)N2	-1	2
O=C(NCCCCc1ccccc1)c1ccc(Br)cc1	-2	33
CC(=O)c1ccc(-c2ccc([C@H]3[C@@H]4C=CCC[C@@]4(C)C(=O)N3Cc3ccccc3)c(F)c2)cc1	-47	23
CSc1ncc(CN2CCN(C(C)C)C(CCO)C2)cn1 (stereo not given)	-11	5
CCN1CCN(C(=S)c2ccc(Cl)cc2)CC1	-2	10
O=C1NC(c2ccc(-c3ccccc3[N+](=O)[O-])o2)C(C(=O)c2ccc(Cl)cc2)C(O)(C(F)(F)F)N1 (stereo not given)	-3	11
COc1ccc(/C=C2\SC(=S)N(CC(=O)N3CCN(C)CC3)C2=O)cc1	-16	22
C/C(=N\N1CCN(c2ccccc2)CC1)c1cccs1	-13	26
CCOC(=O)c1[nH]c2ccccc2c1NC(=O)Nc1ccc(OC)cc1	1	21
COC(=O)c1ccsc1NC(=O)c1ccccc1	-37	18
COC(=O)C1=C(C)Nc2nnnn2C1c1cccnc1 (stereo not given)	13	8
CCC(c1nnc(SCC(=O)N2CC(=O)Nc3ccccc32)n1Cc1ccccc1)N(C)C (stereo not given)	-33	13
CCOC(=O)N1CCN(C(=O)CN(CC)S(=O)(=O)c2cc(C)ccc2OC)CC1	-10	23
